Bioassay records deposited in PubChem by several laboratories.
BJeLR lethal: BJeLR cell viability loss; BJeLR (HRASV12) viability, CellTiter-Glo ATP luminescence, 48 h; reference of the scale not given here; inhibition, % (test concentration not listed); 300,000 compounds, 0.17% hits; AID 1554;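 active means replicate mean above 50%; inconclusive means above 50% but judged a plate artefact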;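 further: 50 nL library stock added to about 25 µL; numbers are from one replicate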
Autofluor counter: counter-screen for toxin protease inhibitors: compound fluorescence; fluorescence intensity (concentration not given with the values); 360,000 compounds, 3.1% hits; AID 624483; compound autofluorescence counterscreen, microsphere flow cytometry; stronger effect = higher value;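 active means at least 3 SD above the mean of all compounds, about 16000 in these data; inconclusive means too few beads counted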;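 further: 100 nL of 1 mM stock went into each well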
Mtb hypoxia inh: Mtb hypoxia fluorescent reporter inhibition; M. tuberculosis hypoxia-regulated fluorescent reporter, fluorescence; fluorescence inhibition, % (concentration not given with the values); 300,000 compounds, 0.1% hits;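 active means 35 to 45% if threefold the growth effect, above 45% if 1.5-fold the growth effect; inactive means the rest, general growth blockers included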;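 further: wells of about 50 µL received 100 nL stock; 0% = vehicle wells and 100% = reference inhibitor wells; whole bacteria with a GFP reporter of the hypoxia response; strong numbers were not always called active; many hits fall short of the cut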
RN4220 kill: S. aureus RN4220 growth inhibition; OD600, 16 h; inhibition, % (test concentration not listed); 330,000 compounds, 0.33% hits;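 active means z-score of -3 or lower and OD600 up to 0.18 on both plates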;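 further: plate controls were untreated cells for no effect and reference antibiotic for full effect; stock transfer was 100 nL into about 80 µL; one replicate is shown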
Sa ugtP lethal: kills S. aureus RN4220 lacking UgtP | growth inhibition, % (concentration not given with the values) | S. aureus RN4220 ugtP deletion, OD600 growth, 16 h; some inactives read as strong as hits | AID 1259309 | 330,000 compounds, 0.54% hits;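 active means z-score under -3 and OD600 up to 0.15 on both plates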;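 further: plate controls were untreated wells for no effect and antibiotic for full effect; wells of about 80 µL received 100 nL stock; the first replicate is given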
PrP 5UTR inh: suppresses PrP 5' UTR mRNA reporter expression | inhibition, % (test concentration not listed) | 340,000 compounds, 0.35% hits | cell-based PrP 5' UTR mRNA reporter, plate reader;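 active means every replicate at 50% or more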;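 further: 0 = median of the neutral control wells; tested in H4 reporter cells; numbers are from one replicate; inactives centre near -14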
Mtb hypoxia inh growth: also measured in Mtb hypoxia inh; calls as there; growth inhibition, %; measured here: M. tuberculosis growth (absorbance);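 0% = vehicle and 100% = reference antibiotic; read after six days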
Starred values were filed as active, the others as inactive; ? = inconclusive; · = not tested or not shown.

SMILES	BJeLR lethal	Autofluor counter	Mtb hypoxia inh	Mtb hypoxia inh growth	RN4220 kill	Sa ugtP lethal	PrP 5UTR inh
COc1cc(CC(=O)NCCc2ccc(S(N)(=O)=O)cc2)cc(OC)c1OC	5	9231	5	8	0.7	-1	6
CCOC(=O)Cn1nnc(-c2ccc(OCC(C)C)cc2)n1	0	?	0	-5	4.5	12	-11
Cc1ccccc1CN1CCC(C(=O)Nc2ccc(Oc3cccnc3)cc2)CC1	10	6698	10	6	-1.9	6	-24
CCNc1nc(NCC)nc(SCCOc2ccc(C)cc2)n1	0	2188	4	-1	-11	4	-15
COc1ccc(C(O)=C2C(=O)C(=O)N(CCN(C)C)C2c2ccc(OC)c(OC)c2)c(C)c1 (configuration not stated)	·	·	5	12	2.4	0	·
Cc1cccc(NS(=O)(=O)c2ccc(C(=O)NCCCN3CCCC3=O)cc2)c1C	-7	4592	0	1	6.2	12	-6
O=C(CN1C(=O)CC(c2ccccc2)=Nc2ccccc21)NC1CCCCC1	-5	3779	-2	-3	-2.4	0	-23
CN1CCN(c2nnc(-c3cccs3)c3ccccc23)CC1	1	4052	8	9	6.0	1	-21
CCOC(=O)c1ccc(NC(=O)CN2C(=O)CN(C(C)=O)C2=S)cc1	6	·	6	2	1.5	11	29
Cn1cccc1-c1cc(C(=O)N/N=C/c2ccccc2Cl)[nH]n1	-11	5716	·	·	·	·	-80
COc1ccc(-c2ccc(C3C4C=CCC[C@@]4(C)C(=O)N3Cc3ccccc3)c(F)c2)cc1OC (some centres not stated)	·	·	-1	6	-3.3	11	·
COc1ccc(N(CC(=O)N2c3ccccc3CC2C)S(=O)(=O)c2c(C)nn(C)c2C)cc1 (configuration not stated)	5	6132	4	-3	8.9	6	-12
Cc1ccc(NC(=O)CC2SC(=Nc3nccs3)N(C)C2=O)c(C)c1 (configuration not stated)	·	·	7	3	7.2	5	·
CCCn1c(SCC(=O)N2CCOCC2)nnc1-c1ccncc1	-8	5711	-2	3	1.5	8	1
COc1ccc(CNS(=O)(=O)c2ccc3c(c2)N(C(C)=O)CC(C)S3)cc1 (configuration not stated)	6	5837	9	4	4.9	3	-5
Cc1ccc(C)c(NC(=O)CCc2nnc3ccc(NCc4ccco4)nn23)c1	-1	5793	10	-2	-1.8	1	-25
Cc1cc(C(=O)CSc2nnc(Cc3ccccc3)o2)c(C)n1Cc1ccc2c(c1)OCO2	-16	3930	-5	4	-4.5	-17	-17
Cc1ccc(S(=O)(=O)NCc2ccccc2)cc1C(=O)NCC(C)(C)N1CCOCC1	10	?	-4	-16	-1.1	-1	-18
O=C(c1ccco1)N1CCN(S(=O)(=O)c2cccc([N+](=O)[O-])c2)CC1	-8	4281	11	16	3.2	5	-21
O=C(NCC1CCCO1)C1CC(=O)N(C2CCCCCC2)C1 (configuration not stated)	-5	7912	-4	-10	4.9	5	-43
N=C1c2ccccc2CN1CC(=O)c1ccccc1	-5	2470	11	4	4.9	11	-45
COc1ccc(CNC2CC(C)N(C)CC2C)cc1OC (configuration not stated)	2	3248	-6	3	5.4	11	-20
NCC(=O)c1cccc2ccc[n+]([O-])c12	-1	3875	-2	-6	1.2	3	-14
Cn1c(=O)c2c(nc(SCC(=O)c3ccc(F)cc3)n2C)n(C)c1=O	-6	4386	6	7	8.5	5	-18
C#CCN1C(=O)C(O)(CC(=O)c2ccc(OC)c(OC)c2)c2ccccc21 (configuration not stated)	-2	5163	0	7	5.9	-8	-24
Cc1ccc(/C=N/NC(=O)CC2N=C(Cc3ccccc3)NNC2=O)cc1 (configuration not stated)	-6	2768	·	·	·	·	-1
O=C(Nc1nccs1)C1CCCCN1S(=O)(=O)c1ccccc1 (configuration not stated)	-2	3443	5	12	4.5	9	-17
CN1C2CCC1CC(NC(=O)CSCc1ccc(Cl)cc1Cl)C2 (configuration not stated)	11	6758	7	14	1.2	0	-11
N=c1sccn1CC(=O)Nc1ccc([N+](=O)[O-])cc1Cl	1	5061	-3	1	5.4	-6	-3
COc1ccc(NC(=O)c2cccc3cccnc23)cc1S(N)(=O)=O	-10	5460	2	3	3.8	0	4
O=C(CCCCCN1C(=O)c2cccc3cccc(c23)C1=O)NCc1ccco1	-10	5330	-5	4	1.1	-2	·
COc1cc(C=NN2CCN(Cc3ccc(Cl)cc3)CC2)ccc1OC(C)=O	·	·	7	2	4.3	6	·
O=C(NCCN1CCCCC1)Nc1cccc(F)c1	8	3875	9	5	4.0	2	-36
CCCOc1ccc(C(=O)N2CCCC2C(=O)O)cc1 (configuration not stated)	-3	9499	10	-1	2.4	4	14
NS(=O)(=O)c1ccc(NC(=O)COC(=O)COc2ccc(Cl)cc2)cc1	-7	2167	1	1	4.3	1	-4
NCC12CC3CC(C1)CC(CN)(C3)C2	-7	23074*	-4	-3	-1.5	-6	-14
Cc1cc(C)cc(NC(=O)/C=C/c2ccc([N+](=O)[O-])s2)c1	-3	2046	9	-2	2.3	-2	-33
CC(=O)c1ccc(S(=O)(=O)Nc2ccc(C(=O)NCC(c3cccs3)N3CCOCC3)cc2)cc1 (configuration not stated)	-5	6757	-3	8	-1.4	-4	5
OCCC1CN(CCCn2cccn2)CCN1Cc1ccccc1 (configuration not stated)	-8	4126	-3	-4	-1.0	-1	-12
CCCCOc1cc(CC2CNC(=O)N2)ccc1OC (configuration not stated)	0	4899	3	6	1.9	4	-11
Cc1cc(OCC(=O)NC(C)C)ccc1Cl	1	3522	-7	4	0.1	4	-11
Cc1nc(CNS(=O)(=O)c2ccc(Oc3ccccc3)cc2)cs1	-5	10446	6	3	7.1	0	-9
COc1cc(C)ccc1OCCOCCOc1ccccc1Br	3	2384	·	·	11	9	-20
CCOC(=O)C(C)Sc1ncnc2c1c(-c1ccccc1)cn2-c1ccc(OC)cc1 (configuration not stated)	8	2733	-10	5	-2.7	23	-19
Cc1ccc(S(=O)(=O)NC2c3cccc4cccc(c34)C2Sc2nc(C)cc(C)n2)cc1 (configuration not stated)	-7	2104	9	2	9.7	-7	-19
CSCC[C@H](NC(=O)OC(C)(C)C)c1nnc(SCc2ccc(F)cc2)o1	·	3686	·	·	2.8	-2	2
Cc1cc(C)nc(NN=Cc2cccc3ccccc23)n1	·	·	10	4	3.8	-1	·
O=C(NC(=S)Nc1ccc(N2CCOCC2)cc1)c1cncc(Br)c1	2	1974	10	3	2.2	27	-28
Cc1cc(C)c(S(=O)(=O)Nc2ncn[nH]2)c(C)c1	-4	5441	9	9	4.2	5	-27
CN(C)c1ccnc(C(=O)O)c1	9	2500	3	3	-1.3	11	-19
COC(=O)c1cc(C(=O)N2CCN(c3ncccn3)CC2)cc([N+](=O)[O-])c1	-3	3314	-1	-6	-3.0	4	-17
CCOc1ccccc1NC(=O)N1CCC(NC(=O)c2ccccc2C)CC1	3	8932	9	14	2.9	3	-9
O=C(Nc1ccccc1)c1nsnc1C(=O)Nc1ccccc1	-5	2238	12	3	12	-23	-14
O=C(COC(=O)CNC(=O)c1ccccc1)Nc1ccc(S(=O)(=O)N2CCOCC2)cc1	19	4456	6	5	2.5	5	-14
CC(/C=C/c1ccccc1)=N\NC(=O)Cn1cncn1	6	4079	·	·	·	·	-9
O=C(Nc1ccc2c(c1)N(S(=O)(=O)c1cccs1)CCC2)c1c(F)cccc1F	-2	5522	-7	5	0.7	-7	-6
CCOc1ccc(S(=O)(=O)NCCC(=O)N2CCCC(C)C2)cc1 (configuration not stated)	5	6040	1	4	3.9	7	-25
COc1ccc(CCNC(=O)CN(c2ccc(OC)cc2)S(C)(=O)=O)cc1	8	4692	-9	-4	-0.6	-4	-7
CS(=O)(=O)Nc1ccc(C(=O)N2CCN(c3ccccc3)CC2)cc1	0	22316*	-2	7	1.3	2	-13
Cc1ccc(C(=O)N/N=C\c2cccnc2)s1	-1	6348	·	·	·	·	-3
New compounds follow:
SMILES	BJeLR lethal	Autofluor counter	Mtb hypoxia inh	Mtb hypoxia inh growth	RN4220 kill	Sa ugtP lethal	PrP 5UTR inh
COCC(C)NS(=O)(=O)c1ccc(C(=O)NCCCn2ccc3ccccc32)cc1 (configuration not stated)	-7	3119	·	·	·	·	-9
Cc1cc(Cl)ccc1NC(=S)NCC(O)c1ccccc1 (configuration not stated)	4	3193	·	·	5.6	12	-3
CCCCN(CC)CCCNC(=O)C1c2ccccc2C(=O)N(C)C1c1cn(C)c2ccccc12 (configuration not stated)	4	4003	-6	-4	-0.7	-1	-7
O=C(c1cccs1)N1CCN(C(=O)N2CCOCC2)CC1	-4	3672	-1	-4	-0.1	-3	-26
CC(NC(=O)Nc1ccc(F)cc1)C(c1cccs1)N1CCCC1 (configuration not stated)	3	2613	1	9	0.7	5	-9
Cc1ccc2oc(C(=O)NCC(c3ccco3)N3CCCC3)c(C)c2c1 (configuration not stated)	-9	4480	8	5	-2.7	-1	-2
COc1ccc(/C=C2\SC(=S)N(CCC(=O)N(CCO)Cc3ccccc3)C2=O)cc1OC	2	3073	0	-2	1.1	-14	16
CCCCN(CC)CCCNC(=O)c1cn(CC)c2ccc(S(=O)(=O)N3CCc4ccccc4C3)cc2c1=O	6	3539	-10	3	-0.9	-9	-31
Cc1ccc(C)c(OCC(=O)Nc2ccc(N3CCOCC3)cc2)c1	-5	3729	-1	2	3.3	1	1
O=C(CSc1nc(-c2ccco2)cc(C(F)(F)F)n1)NCCc1ccccc1	-9	2137	-2	1	19	24	1
NC1=C(Br)C(=O)c2ccccc2C1=O	5	2988	16	13	77	95*	-23
CCOC(=O)C1(Cc2cccc(OC)c2)CCCN(C(=O)CCSC)C1 (configuration not stated)	-9	3671	12	9	6.8	7	-35
O=C(NNc1c2ccccc2nc2ccccc12)c1ccc(O)cc1O	-2	1942	13	10	10	-23	-3
COc1ccc(OCC(O)CN(C2CCCCC2)C2CCCCC2)cc1 (configuration not stated)	5	2949	5	7	5.3	12	-21
COC(=O)[C@H](Cc1c[nH]c2ccccc12)NC(=O)NCc1ccc(OC)cc1	12	3667	-8	6	-0.5	11	-26
Cc1cc(C)c2oc(-c3ccc(Cl)c(NC(=O)c4ccc(C#N)cc4F)c3)nc2c1	7	4360	·	·	-6.6	10	-21
COc1cccc(CNn2c(-c3cccc(C)c3)nc3ccccc3c2=O)c1O	4	8249	3	14	9.4	1	-15
COC(=O)c1sccc1NC(=O)CC1C(=O)NCCN1C(=O)c1ccccc1 (configuration not stated)	-1	5662	-7	9	3.0	-2	-18
CC1(C)CN(c2ccccc2)N(C(=O)c2ccc(C#N)cc2)C1=O	2	11109	2	1	6.8	4	-31
COc1cccc(CN(C)C(=O)CSC(C)C(=O)Nc2cc(C)on2)c1OC (configuration not stated)	-5	6404	1	-7	1.1	-3	-10
COC(=O)c1ccccc1Nc1cc(C)nc2nc(C)nn12	-6	4360	·	·	0.5	3	15
Cc1ccc(S(=O)(=O)N2CCN(C(=O)Cn3c(=O)oc4ccccc43)CC2)cc1	·	4129	7	7	5.3	6	-34
CC(C)[C@H](NC(=O)c1ccccc1)C(=O)OCC(=O)Nc1ccc2c(c1)OCCO2	-10	2530	·	·	·	·	5
NNC(=O)c1ncoc1-c1ccc(Cl)cc1	-8	?	6	1	0.4	-13	-13
Cc1ccc(C2(COC(=O)C(C)C)CO2)c(OC(=O)C(C)C)c1 (configuration not stated)	5	4620	·	·	·	·	-11
COc1ccc(NS(=O)(=O)c2ccc(OC)c3ccccc23)cn1	-5	3237	·	·	7.2	-1	-25

Reprinted at random: 6 compounds from above.
SMILES	BJeLR lethal	Autofluor counter	Mtb hypoxia inh	Mtb hypoxia inh growth	RN4220 kill	Sa ugtP lethal	PrP 5UTR inh
NNC(=O)c1ncoc1-c1ccc(Cl)cc1	-8	?	6	1	0.4	-13	-13
CC(C)[C@H](NC(=O)c1ccccc1)C(=O)OCC(=O)Nc1ccc2c(c1)OCCO2	-10	2530	·	·	·	·	5
COC(=O)c1ccccc1Nc1cc(C)nc2nc(C)nn12	-6	4360	·	·	0.5	3	15
Cc1ccc(C2(COC(=O)C(C)C)CO2)c(OC(=O)C(C)C)c1 (configuration not stated)	5	4620	·	·	·	·	-11
COc1ccc(NS(=O)(=O)c2ccc(OC)c3ccccc23)cn1	-5	3237	·	·	7.2	-1	-25
Cc1ccc(S(=O)(=O)N2CCN(C(=O)Cn3c(=O)oc4ccccc43)CC2)cc1	·	4129	7	7	5.3	6	-34
